Assay outcomes (PubChem BioAssay)
VACV Venus inh: vaccinia inhibition (Venus reporter). Vaccinia virus Venus reporter expression, fluorescence. Potency, µM (titrated, usually from 36.5 µM), for inactives: at the highest dose activity change, negative = inhibition, actives largely listed as inhibitors. 0.46% of 330,000 active. AID 720580; active means well fitted inhibition curve with a large enough effect; inconclusive means small, poorly fitted or top-dose-only effect; inactive means no such curve, though single readings can be large or run the other way; tested in A549 cells; further: nearly all actives have a fitted effect of over 30% in size; inactives centre near -10
VACV mCherry inh: vaccinia inhibition (mCherry reporter). Vaccinia virus mCherry reporter infection, fluorescence; about a quarter of the inactives have no number. Potency, µM (titrated, usually from 36.5 µM), for inactives: at the highest dose activity change, negative = inhibition, actives largely listed as inhibitors. 0.63% of 310,000 active; active = well fitted inhibition curve with a large enough effect; inconclusive = small, poorly fitted or top-dose-only effect; inactive = no such curve, though single readings can be large or run the other way; tested in A549 cells; further: nearly all actives have a fitted effect of over 35% in size; inactives centre near -10
Starred values were filed as active, the others as inactive; i = inactive; ? = inconclusive; . = no result given; & = joins results of further samples; [ ] = dose if it differs, or a comment. On the % scale 0 is the no-effect control and ±100 the full control effect; potency means the concentration at half of the fitted maximal effect.

mol | VACV Venus inh | VACV mCherry inh
CC(C)(C)NC(=O)C(c1ccc(F)cc1)N(CCc1ccccc1)C(=O)c1ccn[nH]1 (centres undefined) | 2% | -4%
CCN(CC)C(=O)Nc1ccc2c(c1)N(Cc1ccccc1)C(=O)c1ccccc1S2 | -8% | -7%
Cc1ccc(OCC(=O)c2cc(C)c(C)cc2C)c([N+](=O)[O-])n1 | -8% | .
O=C(NCCCn1ccnc1)c1cccc(S(=O)(=O)Nc2ccccc2F)c1 | -15% | i
CC(C)CC1C(=O)N(Cc2cn(CCC3OCCO3)nn2)CCS(=O)(=O)N1Cc1ccc(-c2ccncc2)cc1 (centres undefined) | -19% | i
COc1ccccc1NC(=O)Cn1c(=O)n(Cc2nc(C)no2)c(=O)c2cc3c(cc21)OCO3 | -6% | -2%
Cc1nc2c(C)cccn2c1C(=O)c1ccccc1 | -6% | -2%
Cc1ccc(-c2csc(NC(=O)CN3CC(C)OC(C)C3)n2)cc1 (centres undefined) | ? | ?
O=C(Nc1ccccc1C(=O)Nc1nnc(C(F)(F)F)s1)c1ccccc1 | ? | ?
Cc1ccccc1NC(=O)CCn1c(=O)oc2ccccc21 | 7% | i
CCO[C@@H]1OC(C(=O)Nc2ccccc2)=C[C@H](c2coc3ccccc3c2=O)[C@H]1CCCO | -21% | i
N#CCC(=O)Nc1ccccc1C(=O)O | -3% | -1%

Record cards, as listed above.
Shown for Cc1ccc(-c2csc(NC(=O)CN3CC(C)OC(C)C3)n2)cc1 (centres undefined) → VACV Venus inh: ?; VACV mCherry inh: ?
Shown for CCN(CC)C(=O)Nc1ccc2c(c1)N(Cc1ccccc1)C(=O)c1ccccc1S2 → VACV Venus inh: -8%; VACV mCherry inh: -7%

Continuation.
mol | VACV Venus inh | VACV mCherry inh
Cc1cc(=O)oc2cc(OCC(=O)N/N=C/c3ccccc3O)ccc12 | -11% | ?
Cc1ccc(C(=O)c2nccn2C)cc1C | 10% | -12%
O=S1(=O)[C@H]2C[C@@H]3C=C[C@@]2(CN1Cc1cccc(F)c1)O3 | ? | -9%&-4%
C[C@@H]([C@@H](O)c1ccccc1)N(C)C(=O)Cc1ccccc1 | -18% | -3%
CCn1c(C(O)c2cccc(OC)c2OC)nc2ccccc21 (centres undefined) | 0% | -10%
COC(=O)C/C(O)=C(/N=Nc1cccc(C(F)(F)F)c1)C(=O)OC | -5% | -12%
COc1ccc(NC(=O)C(=O)NNC(=O)C(C)Oc2ccc(Cl)cc2Cl)cc1 (centres undefined) | -6% | -5%
O=C(CNC(=O)c1ccccc1Cl)OCc1cc(=O)n2ccsc2n1 | 5% | 0%
Cc1c(NC(=O)CC(=O)Nc2c(C)n(C)n(-c3ccccc3)c2=O)c(=O)n(-c2ccccc2)n1C | -9% | i
COc1ccc(-c2coc3cc(OC(C)=O)ccc3c2=S)cc1 | -3% | -25%
Cc1ccc(N=C2SC(C(=O)Nc3ccc(OC(F)(F)F)cc3)C(N)=C2C(=O)Nc2c(C)cc(C)cc2C)cc1 (centres undefined) | ? | ?
COc1cccc(C(O)c2nc(-c3ccncc3)cs2)c1 (centres undefined) | ? | ?

Rewritten with two lines to a compound: entries from further up.
Screens in order – VACV Venus inh, VACV mCherry inh
- C[C@@H]([C@@H](O)c1ccccc1)N(C)C(=O)Cc1ccccc1
→ -18%, -3%
- CCn1c(C(O)c2cccc(OC)c2OC)nc2ccccc21 (centres undefined)
→ 0%, -10%

The listing continues.
mol | VACV Venus inh | VACV mCherry inh
Cc1nn(-c2ccccc2)c(C)c1C(=O)NCc1ccc(S(N)(=O)=O)cc1 | -8% | 10%
Clc1cccc(Cl)c1CSc1nnc(-c2sccc2-n2cccc2)o1 | -11% | .
COc1ccc(C(=O)Nc2nnc(SCc3cc(=O)n4cc(Cl)ccc4n3)s2)cc1 | -13% | i
O=C(NC1(C(F)(F)F)Oc2ccccc2O1)N1CCC2(CC1)OCCO2 | -21% | ?
O=C(CCc1ccc(S(=O)(=O)NC2CCCCC2)cc1)NCc1ccccc1 | -17% | .
Cc1cccc(NS(=O)(=O)c2ccc3c(c2)CCN3C(=O)C2CC2)c1C | -6% | -8%
Cc1cccc(N2CCN(c3cc(C)nc4nnnn34)CC2C)c1 (centres undefined) | 0% | -12%
COc1ccc(OCc2nc3c4cc(OC)c(OC)cc4nc(=S)n3[nH]2)cc1 | -12% | -5%
Cc1ccc(CNC(=O)c2ccc3c(c2)CCN3S(=O)(=O)c2ccc(Br)cc2)cc1 | -12% | -10%
Cc1cc(O)cc(O)c1C=NCc1ccco1 | 145%[activator] | ?
COc1ccc(CN2CCN(C(=O)c3cc(-c4cccnc4)nc4ccc(Cl)cc34)CC2)c(OC)c1OC | -12% | -16%
COc1ccc(CCNC(=O)c2cc3c(=O)n4ccccc4nc3n(CC3CCCO3)c2=N)cc1 (centres undefined) | -8% | -11%
C=CCN1C(=O)c2ccc(C(=O)OCC(=O)Nc3ccc(S(N)(=O)=O)cc3)cc2C1=O | 9% | -9%
COc1cc2nc(SCC(=O)Nc3cccc(C)c3)n3nc(CCn4c(C)nc5ccccc54)nc3c2cc1OC | -6% | -10%
Cc1nn(-c2ccc(F)cc2)c(-n2cccc2)c1C(=O)NCCCN1CCN(c2ccccc2F)CC1 | -7% | -13%
CC(C)Sc1cc(N2CCCC2)nc(-c2ccccc2Cl)n1 | -2% | -10%
CC(C)C1CC(CCNCc2ccc3c(c2)OCO3)(c2ccccc2)CCO1 (centres undefined) | 3% | -22%
COC(=O)[C@@]12C[C@@H](CC(=O)NCC3CCCCC3)C(=O)N(Cc3ccco3)C1=CCC(C)(C)C2 | -27% | ?
COC(=O)C(O)(c1c(C)[nH]n(-c2ccccc2)c1=O)C(F)(F)F (centres undefined) | -16% | -22%
Cc1cccc(NC(=O)c2oc3ccccc3c2NC(=O)c2cc(=O)c3ccccc3o2)c1 | -8% | 4%
O/N=C(/Cc1ccccn1)c1ccccc1 | -15% | .
COc1ccccc1CNc1nc2ccc(C)cc2n2nnnc12 | -10% | -15%
CCOC(=O)C(CC(C)C)CP(=O)(O)CNC(=O)OCc1ccccc1 (centres undefined) | 4% | i
CC(=O)c1cccc(NC(=O)C(=O)Nc2cccc3ccccc23)c1 | -9% | -8%
CCOC(=O)c1ccc(S(=O)(=O)N2CC(=O)Nc3ccccc32)cc1 | -9% | -11%
Cc1ccc(S(=O)(=O)N2C[C@H]3n4c(=O)ccc(=O)n4C[C@H](OC(=O)NCc4ccccc4)[C@@]3(O)C2)cc1 | ? | ?
N#C/C(=C\Nc1ccccc1O)c1nc2ccccc2o1 | ? | ?
CCCCCn1nnnc1-c1nc2cc3ccccc3cc2[nH]c1=O | 64%[activator] | ?
Cc1ccc(-c2nsc(SCC(=O)NCC3CCCO3)n2)cc1 (centres undefined) | -24% | i
COc1ccc(CCNCC(O)COc2ccc(OC)cc2C(C)(C)C)cc1 (centres undefined) | -22% | ?
CCOC(=O)/C(C#N)=C/c1cn(CCC(=O)O)nc1-c1ccc(OC)cc1 | -9% | -5%
CCNC(=O)C12CCC(C)(C(=O)O1)C2(C)C (centres undefined) | -10% | i
CCn1nc(C(=O)Nc2ccccc2N2CCCC2)c2ccccc2c1=O | -11% | ?
Fc1ccc(-n2[nH]nnc2=S)cc1N1CCCC1 | 0% | i
COc1ccc(NC(=O)CSc2nnc(-c3ccncc3)n2-c2ccccc2)cc1 | -6% | -5%
O=C(NCc1ccccc1)C1C(c2ccccc2)=Nc2ccccc2N1C(=O)c1cccnc1 (centres undefined) | -12% | ?
COc1ccc(-c2n[nH]c(C)c2-c2cscn2)c(O)c1 | -10% | ?
COc1cc(NC(=O)c2cccc3c(-c4cccnc4)coc23)cc(OC)c1OC | ? | ?
COc1ccc(CN2[C@@H](CC(=O)O)c3cc(C(F)(F)F)ccc3S2(=O)=O)cc1 | -7%&-14% | -4%
Cc1cc(NO)c(C(C)C)cc1N=O | -22% | ?
Fc1cc(F)c2nc(N3CCCC3)sc2c1 | -5% | i
Cc1sc(NC(=S)NC(=O)CCc2ccccc2)c(C(N)=O)c1C | ? | ?
CCCN(CC1CC1)C(=S)NC(=O)C1CC1 | -12% | i
OC(c1ccccc1)c1nc(-c2ccc3c(c2)OCO3)cs1 (centres undefined) | 3% | -3%
CS(=O)(=O)N(CC(=O)NCCc1ccccc1)c1cc(C(F)(F)F)ccc1Cl | -16% | i
O=C(CCC(=O)Nc1cc(C(F)(F)F)ccc1Cl)N/N=C\c1cc([N+](=O)[O-])ccc1O | -5% | -20%
Cn1c(N)c(C(=O)COC(=O)c2cccs2)c(=O)n(C)c1=O | -11% | .
COc1ccc(Cn2nnnc2C(CC(C)C)N2CCN(c3ccccc3)CC2)cc1 (centres undefined) | -18% | .
CC1N(C(=O)N2CCOCC2)CCN1S(=O)(=O)c1cccc(C(F)(F)F)c1 (centres undefined) | -1% | 2%
COC1C(O)C(C)OC(OC2CCC3(C=O)C(CCC4C3CCC3(C)C(C5=CC(=O)OC5)CCC43O)C2)C1O (centres undefined) | 0.1µM* | ?
Cc1ccc(SC[C@H](CC(C)C)N2CCN(CCc3ccccc3)CCC2=O)cc1 | -11% | i
Cc1cccc(-c2cccc3nccn23)c1 | -13% | -9%
C[C@]12CCC3C(CC[C@H]4C[C@@H](O)[C@H](O)C[C@]34C)C1CC[C@@H]2O (some centres undefined) | 10% | -15%
Cc1nc(NC(=O)COC(=O)C(NC(=O)c2ccco2)C(C)C)c(Cl)cc1Cl (centres undefined) | -10% | -12%
CCC(=O)NC(Nc1cc(C)ccn1)(C(F)(F)F)C(F)(F)F | -11% | -12%
CC[C@]1(C(=O)OC)[C@H]2C(=O)N(Cc3ccccc3)C(=O)[C@H]2[C@H]2CN(C)C(=NC)N21 | -1% | -14%
c1ccc(SCc2cc(-c3ccccc3)no2)cc1 | -13% | -7%
COc1cc(NC(=O)Cn2c(=O)nc(-c3ccccc3F)c3cc(Cl)ccc32)cc(OC)c1 | -4% | -7%
COc1cc(NC(=O)C2CCN(S(=O)(=O)c3c(C)noc3/C=C/c3cccs3)CC2)cc(OC)c1 | -7% | -8%
CCOC(=O)c1ccc(NC(=O)COc2ccc(-n3cnnn3)cc2)cc1 | -2% | -8%

Further structures
mol | VACV Venus inh | VACV mCherry inh
O=C(CCCN1C(=O)c2ccccc2C1=O)Nc1ccc(Br)cn1 | -5% | -17%
CCN(C(=O)C1CCN(c2nc(-c3ccc(OC)cc3)no2)CC1)c1ccc(OC)cc1 | ? | -14%
CN(C(=O)CSc1nc(-c2cccs2)nc2ccccc12)C1CCS(=O)(=O)C1 (centres undefined) | -9% | -2%
COCc1ccc(C(=O)N2CCOc3c(cc(-c4cc(C)c5cccc(OC)c5n4)cc3OC)C2)o1 | -8% | -16%
O=C(Nc1cccc(S(=O)(=O)N2CCOCC2)c1)c1cccc(S(=O)(=O)N2CCCC2)c1 | -23% | -6%
O=C1N(c2ccccc2C(F)(F)F)O[C@]1(c1ccccc1)C1CCCC1 | ? | ?
COc1ccc(N(CC(=O)NCc2ccccn2)S(=O)(=O)c2ccccc2[N+](=O)[O-])c(OC)c1 | 1% | -12%
COc1ccc(S(=O)(=O)N2CCCC2)cc1Br | 4% | -19%
Cc1ccc(NC(=O)CSC2=C(C#N)C(c3ccco3)C3=C(CC(C)(C)CC3=O)N2)cc1 (centres undefined) | -20% | -24%
Cc1ccccc1C1CCCN(Cc2nc(CC3CC3)no2)C1 (centres undefined) | -15% | -1%
O=C(NNC(=O)c1ccccn1)c1ccc(OC(F)F)cc1 | ? | ?
CCC(=O)N1CCCC1(C)C(=O)Nc1ccc(C)c(C)c1 (centres undefined) | 19% | -15%
Cc1ccccc1NCC(=O)N/N=C/c1c(C)c(C(=O)c2ccc(Cl)cc2)n2ccccc12 | 3% | -15%
CCOc1ccc(C(=O)Nc2cccc(-c3nc4cccnc4s3)c2C)cc1OCC | -15% | -28%
CCOc1cc(C(=O)N(C)c2ccccc2)cc(OCC)c1OCC | -7% | .
CCOc1ccc(NC(=O)CSc2nc3c([nH]c4ccccc43)c(=O)n2-c2cc(C)cc(C)c2)cc1 | -9% | -4%
Cn1cc([N+](=O)[O-])c(C(=O)Nc2cnn(Cc3ccc(F)cc3)c2)n1 | -4% | -13%
O=C1[C@@H](Oc2ccccc2)[C@@H](c2ccncc2)N1c1ccccc1 | -7% | 0%
COc1cc(/C=C2\CC/C(=C\c3cc(OC)c(O)c(OC)c3)C2=O)cc(OC)c1O | 20% | i
COc1ccc(NC(=O)C2(C)Cc3c(-c4cccc(NC(C)=O)c4)ccnc3O2)cc1OC (centres undefined) | -30% | -26%
CN(C)c1nc(NC(C)(C)C)nc(NC(C)(C)C)n1 | -11% | -8%
COc1ccc(CCc2cc(OC)cc(=O)o2)cc1 | -14% | i
CCCS(=O)(=O)c1c(S(=O)(=O)CCC)c2cc(C(C)(C)C)ccn2c1C(=O)c1ccc(C)cc1 | -5% | 11%
COc1cc(/C=C2/SC(=S)N(CC(=O)NC(C)(C)C)C2=O)cc(OC)c1OC | -6% | -20%
CCOP(=O)(OCC)C(NC(=O)C(F)(F)F)c1ccccc1 (centres undefined) | -13% | -14%
CCOC1=NN(c2ccc(Cl)cc2)C(=O)/C1=C\N(C)C | -20% | -3%
